# Screening results: PubChem, several laboratories
# Calb FLC = C. albicans growth modulation with fluconazole; C. albicans CaCi-2 (fluconazole-resistant clinical isolate) + fluconazole, Alamar Blue growth, 48 h; growth inhibition, % (no concentration beside the values); 300,000 compounds, 0.57% hits; AID 1979;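 active = most replicates above 75%; inconclusive = exactly half above 75%; inactive = most below 75%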;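 also: all wells also contain fluconazole at 8 µg/ml as a sub-toxic cotreatment; 0% = median of DMSO wells and 100% = median of geldanamycin control wells; wells of about 8 µL received 7.5 nL stock; the first replicate is given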
# rRNA inh HTS = inhibits bacterial ribosomal RNA function over humanized ribosomes; AID 720706; E. coli WT GFP vs humanized-ribosome RFP mutants, fluorescence, 24 h; active compounds read low; DMSO median 0, no signal -100; GFP signal change (wild-type ribosome), % (test concentration not listed); 350,000 compounds, 1.6% hits;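 active = significant combined selectivity score with lowered wild-type GFP, culture density cut under 30%, mutant RFP and density less affected; inactive = any of these conditions unmet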; also: one replicate is shown; some compounds called inactive have numbers as strong as hits
# T cruzi inh = T. cruzi replication inhibition. AID 1885. T. cruzi beta-gal in NIH3T3, luminescence, 90 h. 300,000 compounds, 1.4% hits. inhibition, % (test concentration not listed);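 active = mean inhibition across valid replicates above about 55%, limit read from the data; inconclusive = mean below that limit but half or more replicates reach it; inactive = mean below it, under half of replicates reach it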;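 also: signal also drops with host cell toxicity which is not excluded here; 0% = plate median of DMSO wells and 100% = zero luminescence signal; higher percent means less beta-gal luminescence so fewer parasites; stock transfer was 50 nL into about 50 µL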
# Beta apoptosis = beta cell apoptosis inhibition | 300,000 compounds, 0.8% hits | INS-1E cytokine-induced death, ATP luminescence, 48 h; percent of positive-control rescue, neutral wells zero | protection from apoptosis, % (no concentration beside the values);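 active = all replicates at 75% or more, or half of them and the mean; inconclusive = half reach 75% but not the mean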;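 also: 0% = cytokine-treated negative control wells and 100% = positive control rescue; higher means more ATP so stronger rescue from cytokine killing; wells of about 40 µL received 100 nL stock; the first replicate is given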
# AF4-AF9 inh = inhibitors of human MLL-AF4/AF9 interaction. P42568. AlphaScreen, biotin-AF4 peptide binding to FLAG-AF9. inhibition, % at 10 µM. 350,000 compounds, 0.47% hits;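 active = every replicate reaching a set inhibition limit, whatever the replicate mean, cut at about 25% in these data; inconclusive = mean inhibition reaches that limit but some replicates miss it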;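 also: 0% = plate neutral control median and 100% = total signal loss; the record names both 10 and 1 µM as test concentration; the first replicate is given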
# Target sequence (P42568 whole entry, looked up): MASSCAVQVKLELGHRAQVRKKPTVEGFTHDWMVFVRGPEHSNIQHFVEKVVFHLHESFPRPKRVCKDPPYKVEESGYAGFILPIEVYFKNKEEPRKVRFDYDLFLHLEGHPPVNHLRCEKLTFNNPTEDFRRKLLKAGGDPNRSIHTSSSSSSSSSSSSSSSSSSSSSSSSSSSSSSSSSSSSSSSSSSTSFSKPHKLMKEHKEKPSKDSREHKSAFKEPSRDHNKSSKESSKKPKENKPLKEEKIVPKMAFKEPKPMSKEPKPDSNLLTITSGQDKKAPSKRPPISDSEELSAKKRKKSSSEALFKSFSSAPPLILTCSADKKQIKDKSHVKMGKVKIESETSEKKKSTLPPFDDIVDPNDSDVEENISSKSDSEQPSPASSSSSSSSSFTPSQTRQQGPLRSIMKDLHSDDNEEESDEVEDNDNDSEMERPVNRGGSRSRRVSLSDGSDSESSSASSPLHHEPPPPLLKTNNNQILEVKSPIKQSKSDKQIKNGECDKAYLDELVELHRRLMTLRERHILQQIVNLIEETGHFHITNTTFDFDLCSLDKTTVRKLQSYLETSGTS
# Vif TR-FRET = inhibitors of Vif binding to APOBEC3G peptide, primary screen, biochemical, TR-FRET, GST-Vif 1-94, biotin-A3G peptide, dose response retest (AID 1117319). TR-FRET GST-Vif / biotin-A3G peptide binding; higher % means a stronger effect; test concentration not given here; strong numbers were not always called active. one-dose inhibition, %; IC50 in µM for titrated hits. 260,000 compounds, 0.57% hits;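 active = above the screen mean plus three standard deviations and confirmed in dose response; inconclusive = results disagree or hit not tested in dose response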;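 also: Vif residues 1-94 fused to GST binding biotinylated APOBEC3G peptide 110-148; 0% = full assay without inhibitor and 100% = GST in place of GST-Vif; retest series ran down from 100 µM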
# Bfl-1 A1 inh = inhibitors of the anti-apoptotic protein A1, read as caspase activation. MEF A1-2A-BIM cells, Caspase-Glo 3/7 luminescence, 3 h; percent of clofoctol response, vehicle zero. caspase activation, % (concentration not given with the values). 330,000 compounds, 0.066% hits;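 active = over half of replicate activation scores above 10%, or exactly half above 10 with the replicate mean above 10; inconclusive = replicate mean below 10 yet half the replicates above 10; inactive = over half of replicates below 10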;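 also: wells of about 30 µL received 50 nL stock; many hits fall short of the cut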
# RanGTP-Imp inh = inhibitors of RanGTP-importin-beta interaction, primary screen, biochemical, FRET, CFP-Ran, YFP-importin-beta, homogeneous; 300,000 compounds, 1.1% hits; cell-free CFP-Ran/YFP-importin-beta FRET ratio; inhibition, % (concentration not given with the values); AID 2216;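 active = most replicates above 15%; inconclusive = exactly half above 15%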;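 also: 0% = DMSO wells and 100% = Ran loaded with GDP instead of GTP; wells of about 40 µL received 100 nL stock; the first replicate is given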
# rRNA inh HTS OD600 = also measured in rRNA inh HTS; calls as there; OD600 change, %; measured here: OD600 growth;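 optical density of the mix in the first replicate; 0 = DMSO median and -100 = no signal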
# rRNA inh HTS RFP = second read-out of rRNA inh HTS, no call of its own (marks repeat the call); RFP signal change, %; measured here: RFP humanized mutant strains;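 first replicate; 0 = DMSO median and -100 = no signal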
# * hit, by the source's call; ? = inconclusive; . = not tested or not shown; & = joins results of further samples.
SMILES	Calb FLC	rRNA inh HTS	rRNA inh HTS OD600	rRNA inh HTS RFP	T cruzi inh	Beta apoptosis	AF4-AF9 inh	Vif TR-FRET	Bfl-1 A1 inh	RanGTP-Imp inh
Cc1cccc(Nc2nnc(SCC(=O)N(C)C3CCS(=O)(=O)C3)s2)c1C (centres undefined)	8	3	4	2.0	-8	-2	-1.1	.	-0.4	-2.3
CC(=O)NCCn1c(SCc2ccc(C)cc2C)nc2ccccc2c1=O	21	.	.	.	5	-1	.	-4%	-0.2	-1.0
CC(C)(C)OC(=O)N[C@@H](COCc1ccccc1)C(=O)N[C@@H](CO)[C@H](O)[C@@H]1C[C@@H]1C(=O)N1CCCC1	-9	2	2	4.4	-13	-11	?	.	0.4	3.7
CCOC(=O)C1CCCN(S(=O)(=O)CCNC(=O)c2ccc3c(c2)OCO3)C1 (centres undefined)	3	14	19	2.4	1	.	-0.2	4%	1.4	0.4
CC(C)CN(C(=O)COC(=O)C1=COCCO1)c1c(N)n(Cc2ccccc2)c(=O)[nH]c1=O	3	-1	1	-1.3	-8	-6	-14	2%	-0.1	3.2
O=C(Cn1nnc(-c2ccccc2)n1)N1CCN(S(=O)(=O)c2ccc(Cl)cc2)CC1	26	.	.	.	-9	-10	.	0%	0.3	2.5
Cc1ccc(S(=O)(=O)N(CC(=O)N2CCC(C(N)=O)CC2)c2cccc(C(F)(F)F)c2)cc1	-11	.	.	.	5	-3	.	-2%	-1.6	0.6
Cc1ccc(S(=O)(=O)c2cc3c(=O)n4ccccc4nc3n(C3CCCC3)c2=N)cc1	28	1	7	-1.5	19	.	-3.1	.	0.0	123*
O=C(NCc1ccncc1)c1cc2ccccc2nc1Cl	4	10	11	-0.2	-8	-1	-4.2	.	0.2	-1.6
Cn1c(SCC(=O)Nc2cc([N+](=O)[O-])ccc2F)nnc1C(F)(F)F	-3	.	.	.	-6	-2	.	.	0.0	0.5
Cc1cc(C(=O)CCC(=O)N2CCN(S(=O)(=O)c3ccccc3)CC2)c(C)s1	-5	-7	-10	1.3	1	.	0.0	1%	0.7	2.0
CCCc1[nH]c2ccc(C#N)cc2c1CCC	-22	-45	-78	-25	39	-4	-0.5	.	1.8	-0.3
Cc1ccc(CCNC(=O)c2nn(C)c3c2CS(=O)(=O)c2ccccc2-3)cc1	5	-8	-20	4.3	7	0	-0.9	10%	-0.3	0.5
Cc1cccc(C)c1OCc1cc(C(=O)NCc2cn(C)nc2C)no1	-2	-17	-21	-1.5	5	-22	0.6	.	-0.2	2.4
O=C(c1cn[nH]c1)c1cc(F)ccc1O	-1	.	.	.	-1	-1	.	4%	0.2	0.0
CC(C)(C)c1cc(NC(=O)c2ccco2)n(-c2ccccc2)n1	21	-1	21	0.3	2	-1	-0.8	-3%	0.6	-3.6
Nc1cccc(Oc2ccc([N+](=O)[O-])cc2)c1	-12	2	0	0.2	9	.	2.3	-5%	2.4	-0.8
COCCCNC(=O)c1c(N)n(-c2ccc3c(c2)OCO3)c2nc3ccccc3nc12	-3	.	.	.	28	-9	.	-7%	0.5	5.4
COc1ccc(NC(=O)CSc2nncn2C)cc1	5	9	12	0.4	-17	2	-0.5	-1%	-0.1	4.1
CCCCNC(=O)c1cnc2n(c1=O)CCS2	-9	.	.	.	-5	-3	.	17%	-0.9	-3.2
CCOC(=O)[C@H]1[C@H]2COc3cc(OC)ccc3[C@@H]2N2C(=O)c3cc(F)ccc3NC(=O)[C@@]12C	.	-9	-12	-11	.	-6	2.7	.	-2.0	.
O=C(O)c1ccc(C(=O)O)c(C(=O)c2ccccc2)c1	-13	.	.	.	-1	-6	.	18%	0.2	-0.8
CCCCC(=O)Nc1cccc(NC(=O)c2cccc([N+](=O)[O-])c2)c1	53	-2	7	-1.5	-1	4	-0.5	-9%	-1.0	?
CC(C)(C)NC(=O)C1CCN(S(=O)(=O)c2cccc3nsnc23)CC1	-9	5	14	-1.8	-3	-3	-13	.	0.5	0.8
COc1ccc(C2NC(=O)NC(C)=C2C(=O)Nc2cc(C)ccc2C)cc1OC (centres undefined)	21	.	.	.	-2	-4	.	4%	0.0	-0.6
CC1=C(CC[C@@H](C)CO)OC2CC3C4CCC5CC(O)CCC5(C)C4CC(=O)C3(C)C12 (some centres undefined)	87*	-7	-1	-9.1	9	-3	7.7	.	-0.1	1.1
COc1ccc(OC)c(-n2c(Cn3c(-c4ccccn4)nc4ccccc43)n[nH]c2=S)c1	14	8	7	2.0	-5	-12	-8.0	7%	0.0	2.5
CN(C)S(=O)(=O)N1CCC(Oc2ccc(C(=O)NCC(C)(C)CO)cc2)CC1	0	19	6	1.9	-1	-9	-1.0	-1%	1.0	-1.0
O=C(Cc1ccc(Cl)cc1)Nc1ccc(NC(=O)c2cccs2)cc1	5	18	17	1.8	-12	-6	-2.5	.	0.0	.
COc1ccc(OC(C)C(=O)N2CCC(C)CC2)cc1 (centres undefined)	-16	.	.	.	-9	-4	.	16%	-1.3	-1.3

SMILES	Calb FLC	rRNA inh HTS	rRNA inh HTS OD600	rRNA inh HTS RFP	T cruzi inh	Beta apoptosis	AF4-AF9 inh	Vif TR-FRET	Bfl-1 A1 inh	RanGTP-Imp inh
Cc1ccc(CNc2c(C=O)c(=O)[nH]c3ccccc23)cc1	-2	11	9	6.3	-6	-2	0.9	-1%	0.5	-0.7
Cc1nc2ccccc2c(=O)n1/N=C/c1ccc(O)cc1O	26	8	5	1.4	-2	-5	1.0	4%	-0.6	0.5
CSc1ncccc1C(=O)OCc1ccccc1F	-3	.	.	.	-9	-1	.	-4%	-0.1	-0.9
Brc1ccc(OCc2nc(-c3ccccn3)n[nH]2)cc1	-20	.	.	.	-48	9	.	27%	-0.3	-3.1
Cc1cccc(NC(=O)Cn2cnc3c(oc4ccccc43)c2=O)c1C	-7	3	13	-1.8	4	-3	-0.4	-4%	1.4	2.4
Cc1[nH]nc(-c2ccc(O)cc2O)c1Oc1ccccc1	37	-13*	9.9*	0.4*	-7	1	4.5	25%	0.4	3.7
O=P(C1=C(N2CCOCC2)/C(=C\c2ccccc2)CC1)(N1CCOCC1)N1CCOCC1	1	15	16	4.1	-5	-1	0.9	3%	-0.6	-2.6
CCOC(=O)CC1C(=O)NCCN1S(=O)(=O)c1ccc(Br)cc1 (centres undefined)	-5	10	6	-1.7	-16	-7	0.7	.	-0.2	2.1
O=C(Cc1ccc([N+](=O)[O-])cc1)NC1CCCCCC1	0	9	7	-1.4	-18	2	-0.2	.	-0.2	3.3
CCOc1ccc(NC(=O)NNC(=O)c2cccnc2)cc1	-5	2	10	3.3	-2	-2	-1.0	.	0.9	-0.2
CCOC(=O)c1sc(NC(=O)COC(=O)c2ccco2)nc1C	-10	.	.	.	3	9	.	-4%	0.1	-5.1
Cc1onc(-c2c(Cl)cccc2Cl)c1-c1nnc(-c2ccc(Cl)cc2)o1	4	-3	-11	-1.8	35	2	-9.1	.	1.8	-4.1
Cn1c(=O)c2c(nc(N3CCOCC3)n2C)n(C)c1=O	2	.	.	.	-19	-4	.	1%&-1%	-0.8	-0.4
Cc1ccc(NS(=O)(=O)c2ccc3c(c2)NC(=O)CCS3)cc1F	8	-8	-20	6.8	-1	8	-19	.	-0.7	-1.0
CCCn1c(OC)nc2c1c(=O)n(C)c(=O)n2C	.	12	9	-1.0	.	0	6.4	2%	0.5	.
COc1ccc(NC(=O)N2CCCCCC2)cc1	6	18	11	0.4	-4	-7	-5.2	30%	-0.4	21*
N/C(Cc1cccc2ccccc12)=N\OC(=O)COc1ccccc1	6	.	.	.	3	-9	.	0%	0.7	1.7
COC(=O)c1ccc(NC(=O)CN2CCN(S(=O)(=O)c3cc(Cl)ccc3OC)CC2)cc1	0	.	.	.	13	-3	.	5%&5%	-1.0	0.8
C=CS(=O)(=O)c1sc(Cl)c(N2CCOCC2)c1[N+](=O)[O-]	3	.	.	.	55*	.	-2.7	?	.	2.5
Cc1ccnc(NC(=O)c2ccccc2NC(=O)C(C)(C)C)c1	-13	0	-7	-5.4	5	-6	.	-2%	0.3	-3.2
CN(CCOCCOc1ccc(Cl)cc1Br)Cc1ccccc1	-3	-37*	-19*	-6.4*	29	-4	1.6	1%	-0.6	-2.1
CN(c1ccccc1)S(=O)(=O)c1ccc(Cl)c(C(=O)NCc2ccco2)c1	.	-16	-16	-2.0	.	1	2.5	4%	1.1	.
COc1ccc(Cl)cc1NC(=O)CN(C)C(=O)c1cc2c(F)cccc2s1	.	-7	-28	0.4	.	11	1.1	.	1.0	.
Cc1noc(C)c1C(c1ccccc1)S(=O)(=O)c1ccccc1 (centres undefined)	22	.	.	.	-2	.	.	-8%	0.3	-2.7
O=c1[nH]cnc2c1oc1ccccc12	4	.	.	.	-12	-2	.	1%	-0.1	3.6
Cc1sc2nc(C3CC3)nc(N3CCN(S(=O)(=O)c4ccc(F)cc4)CC3)c2c1C	2	.	.	.	44	9	.	9%	-0.7	?
Cc1cc(C(=O)O)c(CSc2ncn[nH]2)o1	-5	.	.	.	-9	-2	.	.	-0.2	-2.0
Cc1cc(C)nc(SCNC(=O)c2ccccc2)n1	2	.	.	.	-9	-2	.	0%&-11%	-0.3	-6.3
O=C(NCc1cccnc1)C1c2ccccc2C(=O)N1C1CCCCCCC1 (centres undefined)	18	7	1	-7.7	-9	4	0.5	-3%	1.2	-5.0
O=CN1Cc2[nH]c3ccccc3c2N(c2ccc(Cl)cc2)C1=O	-2	.	.	.	-6	-18	.	3%	1.6	-9.9

# Just rRNA inh HTS OD600 and Vif TR-FRET (3 entries from above):
Structure	rRNA inh HTS OD600	Vif TR-FRET
Cc1nc2ccccc2c(=O)n1/N=C/c1ccc(O)cc1O	5	4%
CSc1ncccc1C(=O)OCc1ccccc1F	.	-4%
Brc1ccc(OCc2nc(-c3ccccn3)n[nH]2)cc1	.	27%

# An excerpt (hit frequency here may not be typical).
